HCMV UL50-53 inh: cytomegalovirus nuclear egress complex inhibition; HTRF UL50-UL53 interaction, normalized percent inhibition; inhibition, % (concentration not given with the values); 0.15% of 190,000 active; AID 1918969;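 active means both replicates at 50% or more, plus weaker picks with an unusually low signal ratio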;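 further: stock transfer was 100 nL into about 20 µL; 0% = negative control wells and 100% = wells with untagged competitor protein; inactives centre near -12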
* = called active by the depositor; & = joins results of further samples. Only part of the results is shown; the hit share may differ from the screen's.

SMILES | HCMV UL50-53 inh
CCC(C)C(=O)OC1CCC=C2C=CC(C)C(CCC3CC(O)CC(=O)O3)C21 (centres undefined) | -6.7
O=S(=O)(c1ccc2ccccc2c1)N1CCN(c2ccc(F)cc2)CC1 | -4.1
CCOC(=O)c1c(C)oc2cc(Br)c(OCC#N)cc12 | -19.2
Cc1ccc(C2/C(=C(\O)c3ccccc3)C(=O)C(=O)N2CCN2CCOCC2)cc1 (centres undefined) | 0.4
CCCOc1ccc2c(C)c(CCC)c(=O)oc2c1 | -14.9
O=C(CSc1nnc(NC(=O)c2cccs2)s1)Nc1ccccc1F | -14.8
CCS(=O)(=O)NCCc1cc2ccc(C)cc2[nH]c1=O | -16.0
CC1=C(CCN2CCC3(CC2)C(=O)N(C(C)C)C(=O)N3C)C(C)(C)CCC1 | -15.7
Cc1c(C(=O)NC2CCCC2)sc2nc(-c3ccccc3)cn12 | -6.4
CC(C)[C@@H]1NC(=O)[C@@H]2C[C@H](NC(=O)c3cc(C(C)(C)C)nn3C)CN2C1=O | -14.9

Some of the entries above in a different format.
SMILES	HCMV UL50-53 inh
CCOC(=O)c1c(C)oc2cc(Br)c(OCC#N)cc12	-19.2
O=C(CSc1nnc(NC(=O)c2cccs2)s1)Nc1ccccc1F	-14.8
Cc1ccc(C2/C(=C(\O)c3ccccc3)C(=O)C(=O)N2CCN2CCOCC2)cc1 (centres undefined)	0.4
CCC(C)C(=O)OC1CCC=C2C=CC(C)C(CCC3CC(O)CC(=O)O3)C21 (centres undefined)	-6.7

(more compounds)
SMILES | HCMV UL50-53 inh
Cc1cc2cc(CNC(=O)/C=C\c3ccc4c(c3)OCO4)ccc2[nH]1 | -28.4
COc1ccc2cc(CCNS(C)(=O)=O)c(=O)[nH]c2c1 | -14.0
CCN1CCN(CC(O)COc2cccc(OC)c2)CC1 (centres undefined) | -9.4
CC(=O)Nc1nnc(SCc2ccc(C(F)(F)F)cc2)s1 | -24.6
Cc1ccc(-c2nc(N3CCOCC3)nc3ccccc23)cc1 | -24.6
Nc1ccc(Br)cc1-c1nc2ccccc2s1 | -9.7
COc1ccc(C=CC(=O)O)cc1O | -27.9
CC(=Cc1ccccc1)C=C1SC(=S)N(CC(=O)O)C1=O | -124.7
Cc1ccc(NC(=O)/C=C/c2ccc(-c3ccccc3)o2)cc1 | 6.9
COC(=O)CN1C(=O)COc2cc(S(=O)(=O)NC(C)C)ccc21 | 7.4
COc1ccccc1C1CC(=O)CC(c2ccccc2OC)S1 (centres undefined) | 5.0
Cc1cc(C)c(C(=O)N2CCCCC2CCN2CCCC2=O)cc1C (centres undefined) | 2.4
CC1SC(C)C(=O)N(CC(=O)NCCc2ccccc2)C1=O (centres undefined) | -7.5
C=C1C(=O)[C@@]23C(O)[C@H]1CCC2[C@]12CO[C@]3(O)C(O)[C@@H]1C(C)(C)CCC2O (some centres undefined) | 6.7
c1ccc(SCc2nnc3n2CCCCC3)cc1 | -8.5
CCc1cc(-c2[nH]ncc2-c2ccc(Br)cc2)c(O)cc1O | -25.8
O=C(/C=C1\SC(=O)NC1=O)Nc1nccs1 | -28.9
O=C(CSc1nnc(-c2cccc(Br)c2)o1)c1ccccc1 | -10.0
O=C(C=Cc1ccccc1)NC(NC(=S)Nc1ccc(Cl)cc1)C(Cl)(Cl)Cl (centres undefined) | 15.7
NS(=O)(=O)c1cccc2c1c([N+](=O)[O-])cc1[nH]c(=O)c(=O)[nH]c12 | -103.2
COc1ccccc1C(=O)Nc1nnc(-c2cccc(C)c2)s1 | 4.6
Brc1ccc(-c2nn3c(-c4ccccc4)nnc3s2)cc1 | 7.9
CC(C)CNC(=O)[C@@H]1C[C@H](CN2CCOCC2)CN(Cc2ccccc2)C1 | -10.3
CCc1nc2ccccc2n1CCOc1ccccc1 | -7.0
O=C(CC1=CCCCC1)NCc1ccon1 | -28.1&-28.1
CCOC(=O)c1ccc(N2CCC(c3ccc(F)cc3)C2)nc1 (centres undefined) | -26.3
COc1ccc(OC)c(NC(=O)CCC(=O)O)c1 | -1.9
Clc1ccccc1-c1nnc(-c2ccncc2)o1 | 4.9&-13.4
NC[C@H]1O[C@H](OC2[C@@H](N)C[C@@H](N)[C@H](O)[C@H]2O[C@@H]2O[C@H](CO)[C@@H](O)[C@H]2O)[C@H](N)[C@@H](O)[C@@H]1O (some centres undefined) | -15.5
CC(C)[C@H](C(=O)Nc1ccc(C(=O)NO)cc1)c1ccccc1 | -10.6&-10.6
CC(C)NS(=O)(=O)c1cc(NCc2cnn(C)c2)cc(C(=O)NCc2cn3ccccc3n2)c1 | -0.6
CN(C)C(=O)c1c(-c2ccccc2)oc2ccc(O)cc12 | -22.3
CC(C)CCN1c2nc(Nc3cc(F)c(O)c(F)c3)ncc2N(C)C(=O)C1C (centres undefined) | -0.8&-23.3&-20.5&-21.1
Cc1ccc(-c2c(C(=O)O)c3ccccc3[nH]c2=O)cc1 | -3.8
O=C(Cn1nnc(-c2ccccc2)n1)Nc1ccnn1Cc1ccccc1 | -8.6&-8.6
CCN(C)Cc1ccc(-c2nc(C(F)(F)F)c(C)c(=O)[nH]2)cc1 | -12.1
Cc1csc(-c2cc3ccc(O)c(CN4CCCC4)c3oc2=O)n1 | -60.6
COc1ccccc1Oc1ccc(S(=O)(=O)NCc2ccco2)cc1 | -3.3
Cc1ccc(NC(=O)c2cc3ccccc3oc2=O)cc1C | 2.1
O=C(CCn1c(=O)sc2ccccc21)Nc1ccccc1 | 10.7
CC(C)CCNC(=O)C(CC(C)C)NC(=O)C1OC1C(=O)O (centres undefined) | 3.3
COc1ccc(C(=O)Sc2nnnn2-c2ccccc2)cc1 | -5.8
CNc1cc(C(F)(F)F)nc(-c2ccccn2)n1 | -5.7
O=S(=O)(c1ccc(Cl)cc1)c1nc(N2CCOCC2)sc1Cl | -0.9
CCCCC[C@H](O)/C=C/[C@@H]1[C@@H](CC(=O)CCCCC(=O)O)[C@@H](O)C[C@H]1O | -13.4&-13.4&-12.8
CN1CCN(Cc2c(O)ccc3c(-c4ccccc4)cc(=O)oc23)CC1 | -78.1
CCCC(C)NC(=O)c1ccc(Cl)c(Cl)c1 (centres undefined) | -6.5
O=C1NCCN(C(=O)c2cccc(-c3ccccc3)c2)C1Cc1ccccc1 (centres undefined) | -9.8
COc1cccc(Nc2ncnc3c2cnn3-c2ccccc2)c1 | -9.5
Cc1cc2ccccc2n1CCNC(=O)C(C)Oc1ccccc1 (centres undefined) | -3.6

(further entries)
SMILES | HCMV UL50-53 inh
O=C(O)c1ccc(NC(=O)C23CC4CC(CC(C4)C2)C3)cc1 | -10.3
COc1ccc(-c2ccc(/C=C(\C#N)c3ccccc3)o2)cc1 | 1.4
N#Cc1c(NC(=O)/C=C/c2cccs2)sc2c1CCC2 | -13.7
C=CCNC(=O)C1C(=O)NC2(C)CC1c1ccccc1O2 (centres undefined) | 1.5
CCn1nc(C(=O)N2CCCC2)c2c1CCC(N1CCN(c3ccccc3OC)CC1)C2 (centres undefined) | -1.0
O=C(CCCN1C(=O)/C(=C/C=C/c2ccccc2)SC1=S)Nc1ccccn1 | -2.3
O=C(NCC1CCCO1)c1ccc(Br)o1 (centres undefined) | 7.0
O=S1(=O)CC2SC(=S)N(Cc3ccccc3)C2C1 (centres undefined) | -11.0
COc1ccc(CN2C(=O)N(C)C3(CCN(Cc4cccn4-c4ccccn4)CC3)C2=O)cc1 | 6.1
CC/C=C\C/C=C\C/C=C\CCCCCCCC(=O)OCC | -6.6&-6.6
O=C(COc1ccccc1)Nc1ccccc1-c1nc2ccccc2o1 | -3.3
C=C(C)C1CC[C@]2(C(=O)O)CC[C@]3(C)[C@H](CC[C@@H]4[C@@]5(C)CCC(O)C(C)(C)[C@@H]5CC[C@]43C)[C@@H]12 (some centres undefined) | -18.0
Cc1ccc(S(=O)(=O)Nc2cccc(C(=O)NCCC(C)C)c2)cc1 | 4.1&-16.4
Cc1ccc(/C=C2\CNC/C(=C\c3ccc(C)cc3)C2=O)cc1 | -5.8
O=[N+]([O-])c1ccc2[nH]ncc2c1 | -72.9
CN(C)c1ccc(C(=O)Nc2nc3ccc(Cl)cc3s2)cc1 | 8.7
CC1(C)S[C@@H]2[C@H](NC(=O)C(C(=O)O)c3ccsc3)C(=O)N2[C@H]1C(=O)O (some centres undefined) | -38.7
CN[C@@H]1C(O[C@H]2O[C@H](CO)[C@@H](N)[C@H](O)[C@H]2O)O[C@H]2C[C@@H](N)[C@@H](O[C@H]3[C@H](O)[C@@H](O)[C@H](N)C[C@@H]3N)OC2[C@@H]1O (some centres undefined) | -41.6
O=c1oc2ccc(Br)cc2cc1S(=O)(=O)c1ccc(Cl)cc1 | -2.8
COC(=O)C1=C(NC(=O)Cc2ccccc2)CCS1 | -30.7&-6.1
COc1cccc2sc(=NC(=O)C3CCCCC3)n(C)c12 | -15.7
CCSc1nnc(NC(C)=O)s1 | -11.2
CCCC(=O)NCc1ccc2[nH]c3c(c2c1)CCCC3 | 7.2
CC1Cc2ccccc2N1C(=O)C12CCC(C)(C(=O)O1)C2(C)C (centres undefined) | -0.6
CCOC(=O)c1c(NC(=O)COc2ccccc2OC)sc2c1CCCC2 | -2.3
Cc1cc(C)c2nc(NC(=O)CCOc3ccccc3)sc2c1 | 10.8
O=C(NCCC1=CCCCC1)c1cc2cc(Cl)cc(Cl)c2oc1=O | -1.7
Cc1ccc(N2C(=O)/C(=C3/C(=O)N(C)c4ccccc43)SC2=S)cc1 | 5.7
COc1cccc(-n2cc(-c3ccnc(NCCc4cnc[nH]4)n3)cn2)c1 | -14.7&-14.7
O/C(=C/Sc1nnc(Cc2ccccc2)o1)c1ccc(F)cc1 | 0.1
COC(=O)C1C(=O)NC(SC)=C(C#N)C1c1ccccc1C (centres undefined) | 2.0
CC(C)c1ncc(-c2cc(C(=O)N3CCC(C)(C)C3)c3ccccc3n2)cn1 | -30.0
CN(C)S(=O)(=O)c1ccc2c3c(cccc13)C(=O)N2 | -87.7
O=C(NCCn1ccc2ccccc21)c1ccc(Cl)cc1Cl | -10.7
COC(=O)C1C(O)CC[C@H]2CN3CCc4c([nH]c5ccccc45)[C@@H]3C[C@H]12 (some centres undefined) | -6.2
CCCc1cc(C(=O)c2ccc(-c3ccccc3)cc2)ccc1OCCCN1CCCc2c(OC(C)(C)C(=O)O)cccc21 | -13.3&-13.3
COc1cccc(OCC(O)CN2CCCCC2)c1 (centres undefined) | -15.0
COC(=O)CCC(=O)Nc1sc(C)c(C)c1C(N)=O | -1.6
CCOC(=O)CSC1=C(C#N)C(c2ccccc2)CC(=O)N1 (centres undefined) | -27.3
CNC(=O)c1ccccc1-c1cccc2ccccc12 | -6.9&-6.9

Shown tab-delimited: 7 of the compounds above
structure	HCMV UL50-53 inh
COC(=O)C1C(=O)NC(SC)=C(C#N)C1c1ccccc1C (centres undefined)	2.0
CC(C)c1ncc(-c2cc(C(=O)N3CCC(C)(C)C3)c3ccccc3n2)cn1	-30.0
CN(C)S(=O)(=O)c1ccc2c3c(cccc13)C(=O)N2	-87.7
O=C(NCCn1ccc2ccccc21)c1ccc(Cl)cc1Cl	-10.7
COC(=O)C1C(O)CC[C@H]2CN3CCc4c([nH]c5ccccc45)[C@@H]3C[C@H]12 (some centres undefined)	-6.2
CCCc1cc(C(=O)c2ccc(-c3ccccc3)cc2)ccc1OCCCN1CCCc2c(OC(C)(C)C(=O)O)cccc21	-13.3&-13.3
COc1cccc(OCC(O)CN2CCCCC2)c1 (centres undefined)	-15.0

The list continues:
SMILES | HCMV UL50-53 inh
CC(=O)Oc1ccc2c(=O)c(-c3ccc4c(c3)OCCO4)coc2c1 | -3.8
COc1cc(N2CCN(Cc3ccc(F)cc3)C(=O)C2)ncn1 | -0.6
CN(C)S(=O)(=O)c1ccc(C(=O)Nc2ccccc2)cc1 | -12.3
CCc1ccc(C2/C(=C(/O)c3ccc4c(c3)CC(C)O4)C(=O)C(=O)N2CCOC)cc1 (centres undefined) | -10.3
O=C(Nc1cccc(OC(=O)c2ccc(F)cc2)c1)c1ccc(F)cc1 | -25.4
CCOC(=O)N1CCN(C(=O)C2CCC(=O)N2C(C)C)CC1 (centres undefined) | -11.6
CN1CCN(CC(C)(C)C)CC1CCO (centres undefined) | -0.6
COc1cc(S(=O)(=O)N2CCCCCC2)c(OC)cc1Br | -7.1
COC1CC2CCC(C)[C@](O)(O2)C(=O)C(=O)N2CCCC[C@H]2C(=O)OC(C(C)CC2CCC(n3cnnn3)C(OC)C2)CC(=O)C(C)C=C(C)C(O)C(OC)C(=O)C(C)CC(C)C=CC=CC=C1C (some centres undefined) | -9.2
CCOC(=O)c1[nH]c2ccccc2c1NC(=O)CCc1ccccc1 | -8.4
CC(=O)NCCn1c(C)cc2ccccc21 | 1.9
OCc1nc(CO)n(Cc2ccccc2)n1 | -25.4
CC1(C)CC(=O)C2=C(C1)Nc1ncnn1C2c1ccncc1 (centres undefined) | -19.5
N#Cc1cn(-c2ccccc2)nc1-c1cc2ccccc2oc1=O | -31.6
CC(/C=C1\SC(=S)N(CC(=O)Nc2ccccn2)C1=O)=C\c1ccccc1 | -12.7
Cc1nc2ccc(S(=O)(=O)NC3CCCC3)cc2o1 | -5.0
CCOC(=O)c1sc(NC(=O)c2cccc(OC)c2)nc1-c1ccccc1 | -10.4
COC(=O)c1ccccc1NC(=O)C12CC3CC(CC(C3)C1)C2 | -1.1
Cc1cc(NC(=O)Cn2cc(-c3cccc4cccnc34)cn2)n(C)n1 | -36.2&-36.2
O=C1CN(C(=O)C2CC2)C(c2ccccc2)c2cc(Cl)ccc2N1 (centres undefined) | -12.9
Cc1ccc(S(=O)(=O)NCCCOC(=O)Nc2ccncc2)cc1 | -24.5
O=C(CSc1nnc(NC(=O)C2CCCCC2)s1)Nc1ccc(F)cc1 | -6.1
CN1CCN(C(CNS(=O)(=O)c2ccccc2)c2cccnc2)CC1 (centres undefined) | -19.1
CCOC(=O)N1c2ccc(C(F)(F)F)cc2C(N(Cc2cc(C(F)(F)F)cc(C(F)(F)F)c2)C(=O)OC)CC1CC (centres undefined) | 17.2
Cc1nn(C)c2nc(NNC(=O)Nc3cc(Cl)nc(Cl)c3)cc(C(C)C)c12 | -2.1&-11.1&-11.1
COc1cccc(OCC(O)CN2CCN(c3ccc(F)cc3)CC2)c1 (centres undefined) | -6.4
CCOC(=O)CSC1=NN2CCCC(=O)N=C2S1 | -19.6
CNC(=O)c1c(I)c(NC(C)=O)c(I)c(C(=O)O)c1I | -76.1
C=CCn1c(SCC(=O)c2ccccc2)nnc1-c1ccc(OC)c(OC)c1 | -7.0
C[C@H](O)C(=O)Nc1c(I)c(C(=O)NC(CO)CO)c(I)c(C(=O)NC(CO)CO)c1I | 6.4
